Source: PubChem
A1 inhib = inhibitors of A1. 0.51% of 21,000 active. MEF A1-2A-BIM cells, caspase-Glo luminescence, 3 h; percent of clofoctol signal, DMSO as zero. AID 2241. caspase activation, % (no concentration beside the values);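 active = most replicate scores above 10, or exactly half above 10 with mean activity above 10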;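 note: effector caspase 3 and 7 activity cleaving a DEVD luciferin substrate; 50 nL library stock added to about 30 µL; numbers are from one replicate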
BJeLR viability = lowers viability of BJeLR cells. BJeLR fibroblasts viability, CellTiterGlo ATP luminescence, 48 h; HRASV12, hTERT and SV40 LT/ST transformed. viability loss activity score, % (test concentration not listed). 0.64% of 30,000 active; in the data active = viability loss activity score above about 50%; about a fifth of its hits are not listed in these tables;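 note: higher score means fewer live cells and less ATP luminescence; stock transfer was 50 or 100 nL into about 30 µL; 0% = vehicle wells and 100% = a reference killing control; one replicate is shown; the record names a cut of 85%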
* hit, by the source's call; · = no result given. Only part of the results is shown (hit frequency here may not be typical).

| cpd | smiles | A1 inhib | BJeLR viability |
| --- | --- | --- | --- |
| 1 | COc1cccc(-n2ccnc2SCC(=O)NCc2ccc3c(c2)OCO3)c1 | · | -2.0 |
| 2 | C[C@@H]1CN([C@H](C)CO)C(=O)c2cccc(NC(=O)C3CCOCC3)c2O[C@@H]1CN(C)C | · | 8.5 |
| 3 | O=C(O)c1c(CNC2CCCC2)c2ccccc2n1Cc1ccccc1 | · | -1.7 |
| 4 | C[C@@H]1CN([C@H](C)CO)C(=O)c2cccc(NC(=O)C3CCCCC3)c2O[C@H]1CN(C)Cc1ccccc1 | · | -1.2 |
| 5 | O=C(Cn1c(SCc2cccc(Cl)c2)nc2ccncc21)NCC1CCCO1 (stereo not given) | 1.7 | -0.1 |
| 6 | Cc1ccccc1NC(=O)N(Cc1cccs1)C(=O)CC#N | 0.2 | -0.1 |

Given screen by screen: entries from further up
[3] O=C(O)c1c(CNC2CCCC2)c2ccccc2n1Cc1ccccc1
[4] C[C@@H]1CN([C@H](C)CO)C(=O)c2cccc(NC(=O)C3CCCCC3)c2O[C@H]1CN(C)Cc1ccccc1
[5] O=C(Cn1c(SCc2cccc(Cl)c2)nc2ccncc21)NCC1CCCO1 (stereo not given)
Compound	3	4	5
A1 inhib	·	·	1.7
BJeLR viability	-1.7	-1.2	-0.1
